# Vaccinia pol inh: vaccinia E9 polymerase processive synthesis inhibitors, primary screen, biochemical, absorbance. Vaccinia virus DNA polymerase (E9) processive complex. in vitro processive DNA synthesis, absorbance read-out; hits give low values; some inactives read as strong as hits. normalized absorbance, % (test concentration not listed). 46,000 compounds, 0.94% hits;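 active = replicate mean up to 90% and picked by the depositor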;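 note: 100% = median of the test wells of a plate; 100 nL library stock went into each well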
# Starred values were filed as active, the others as inactive. An excerpt; count on the stated rates, not on these rows.
SMILES,Vaccinia pol inh
NS(=O)(=O)c1ccc(NC(=O)C2CC2)cc1,97
CCCN(CCC)Cc1nnc(-c2cccc(Br)c2)o1,101
Cc1ccc(C)c(C(=O)COC(=O)/C=C/c2ccccc2Cl)c1,100
Cc1cc(/C=N/n2cnnc2)c(C)n1-c1ccc(C(=O)O)cc1,101
CCOC(=O)c1c(C)c(-c2ccccc2)n(CC(=O)N(CC)CC)c1C,104
Cc1ccc2c(c1)C(C)(C)C1(C)N(Cc3ccccc3)C(=O)CN21 (stereo unspecified),86
CC(C)n1c(=O)c2oc3ccccc3c2n(Cc2ccccc2)c1=O,104
CCCn1c(C(Cc2ccccc2)NC(C)=O)nc2ccccc21 (stereo unspecified),101
Cc1ccc(C(=O)c2cc(F)c(N3CCOCC3)cc2Cl)cc1C,100
NC(=O)c1cc(Cl)c(C(=O)O)[nH]c1=O,90
C(=N/N1CCN(c2ccccc2)CC1)/c1ccccc1,100
CCOC(=O)CSc1n[nH]c(CN2c3ccccc3Sc3ccccc32)n1,106
COCCc1ccc(OCC(O)CNC(C)C)cc1 (stereo unspecified),92
CC(NC(=O)c1ccc(F)cc1)C(c1cccs1)N1CCOCC1 (stereo unspecified),98
CN(C(=O)Nc1ccc(Cl)cc1)n1cnc2ccccc2c1=O,110
Cn1cc(O)nc1NC(=O)c1cccc(Oc2ccccc2)c1,107
CCC(C)(O)c1cn(Cc2ccccc2)nn1 (stereo unspecified),99
CCOC(=O)c1c(NC(=O)CC)sc(C)c1C,100
Cc1ccc(C)c(N2CCN(CCCNC(=O)c3oc4c(c3C)-c3[nH]ncc3CC4)CC2)c1,105
COc1cc2c(cc1OC)C(=O)NCC2,102

# The last 10 entries of the part above are carried over, then new ones follow.
SMILES,Vaccinia pol inh
C(=N/N1CCN(c2ccccc2)CC1)/c1ccccc1,100
CCOC(=O)CSc1n[nH]c(CN2c3ccccc3Sc3ccccc32)n1,106
COCCc1ccc(OCC(O)CNC(C)C)cc1 (stereo unspecified),92
CC(NC(=O)c1ccc(F)cc1)C(c1cccs1)N1CCOCC1 (stereo unspecified),98
CN(C(=O)Nc1ccc(Cl)cc1)n1cnc2ccccc2c1=O,110
Cn1cc(O)nc1NC(=O)c1cccc(Oc2ccccc2)c1,107
CCC(C)(O)c1cn(Cc2ccccc2)nn1 (stereo unspecified),99
CCOC(=O)c1c(NC(=O)CC)sc(C)c1C,100
Cc1ccc(C)c(N2CCN(CCCNC(=O)c3oc4c(c3C)-c3[nH]ncc3CC4)CC2)c1,105
COc1cc2c(cc1OC)C(=O)NCC2,102
CCN(CC)c1ccc(C=C2C(=O)N(C)C(=S)N(C)C2=O)cc1,100
CCN(CC)C(=S)Nc1ccc2nsnc2c1,98
CC(C)Oc1snc(Cl)c1C(N)=O,100
CCCC1c2ccc(C)n2CCN1C(=O)Nc1cc(Cl)ccc1C(=O)OC (stereo unspecified),100
N#Cc1ccc(COc2cccc3cccnc23)cc1,96
CCOC(=O)C1CCCN(C(=O)c2c[nH]n3c(=O)c(Cc4ccc(Cl)cc4)c(C)nc23)C1 (stereo unspecified),100
COc1ccc(C2N(c3ccc(OC)cc3)C(=O)C23CCCC3)cc1 (stereo unspecified),106
NS(=O)(=O)c1ccc(N2CCCC2=O)cc1,105
O=C(O)CSc1nc2ccccc2n2cnnc12,102
CC1CCCCC1NC(=O)CCn1c(=O)oc2ccccc21 (stereo unspecified),103
O=C(Nc1ccc(-n2nncc2-c2ccccc2)cc1)c1ccc(S(=O)(=O)N2CCCCC2)cc1,99
CC(C)(C)c1c[n+](-c2ccccc2)c2n1CCCS2,93
COc1ccc(Nc2ccnc3ccccc23)cc1,98
Cc1ccccc1C(=O)OC1CCCC1,100
CC(C)CNC(=O)C1Sc2nnc(-c3ccccc3)n2NC1c1ccccc1 (stereo unspecified),96
CC1(C)CC(NC(=O)c2ccc(C#N)cc2)CC(C)(C)N1,89
CSC(=S)n1cccc1,92
CC1CCCCN1C(=O)CSc1nnc(-c2ccccc2)o1 (stereo unspecified),95
COc1ccc(NC(=O)C2CCCCC2C(=O)O)cc1 (stereo unspecified),102
Cc1cccc(N2CCN(C(=O)Nc3ccccc3)CC2C)c1 (stereo unspecified),101

# In the list so far, these have two or more sulfur atoms:
SMILES,Vaccinia pol inh
CCOC(=O)CSc1n[nH]c(CN2c3ccccc3Sc3ccccc32)n1,106
CCN(CC)C(=S)Nc1ccc2nsnc2c1,98
CSC(=S)n1cccc1,92

# (further entries)
SMILES,Vaccinia pol inh
CCCNC(=O)CSc1c(-c2ccccc2)c2cc(Cl)ccc2[nH]c1=O,99
COc1ccc(NC(=S)N2CCN(C)CC2)cc1,101
COc1ccc(S(=O)(=O)N(CC(N)=O)c2ccc(C)cc2)cc1,100
CCOc1cccc2cc(C#N)c(=O)oc12,100
CC(C)N1CCc2c(sc(NC(=O)CCc3ccccc3)c2C#N)C1,101
O=C(NCc1ccco1)c1cc2c(s1)CCCC2,117
C[N+]1(C2CCC3CCC2C3=O)CCCC1 (stereo unspecified),101
C=CCNc1ccc(F)c(F)c1N1CCCCCC1=O,101
CN1CCCCCC1=Nc1cccc(F)c1,96
Clc1cnc(-n2cccc2)nc1,137
Cc1ccc(CN2CCCNC2=O)cc1,100
NS(=O)(=O)c1ccccc1N1C(=O)CCC1=O,100
COc1ccc(Cl)cc1NC(=O)COC(=O)CCC1CCCCC1,107
O=C1C(=O)N(c2cccnc2)C(c2ccccc2)/C1=C(/O)c1ccccc1 (stereo unspecified),100
CC1CCCCN1C(=O)CCS(=O)(=O)c1ccc2c(c1)n(C)c(=O)c(=O)n2C (stereo unspecified),104
CCOc1ccc(NC(=O)CSc2c[nH]c3ccccc23)cc1,100
Oc1ccccc1C=Nc1cccc2ccccc12,100
CNC(=S)N(C)/N=C1/C(=O)N(Cc2c(Cl)cccc2Cl)c2ccccc21,96
CC1=CC(=O)C(N(C)c2ccccc2)=CC1=O,101
Nc1nc2c(C(=O)N3CCOCC3)nnn2c2ccccc12,104
CCN(CC)c1ncnc2sc(C(=O)N(C)C3CCCCC3)c(C)c12,113
O=C1CCCC(O)=C1C=Nc1cccc2ccccc12,93
COc1ccc(CCNCC2CCCO2)cc1 (stereo unspecified),113
c1ccc(C2N3CCCN23)cc1 (stereo unspecified),102
O=C(ON(C(=O)c1ccc(F)cc1)C1C2CC3CC(C2)CC1C3)c1ccc(F)cc1 (stereo unspecified),96
O=C1CC(c2ccccc2)OC12CCCCC2 (stereo unspecified),100
CCc1nc2ccccc2c(C(=O)OCC(=O)c2ccccc2)c1C,98
CCOC(=O)N1CCC(N=Cc2ccc(OC(C)C)cc2)CC1,99
O=S(=O)(NCc1ccccc1)c1ccc2c(c1)OCCO2,100
CCN(CC)S(=O)(=O)c1ccc(C(=O)NCCn2ccc3ccccc32)cc1,100
CCCn1c(C(C)NC(=O)C(C)(C)C)nc2ccccc21 (stereo unspecified),104
OC1(c2ccccc2)C2CC3CC(C2)CC1C3 (stereo unspecified),100
CC(C)(C)/C(N)=N/S(=O)(=O)c1cc(C(F)(F)F)cc(C(F)(F)F)c1,101
O=C(C1=CC2Cc3ccccc3C2C=C1)c1cccc(Br)c1 (stereo unspecified),100
CCC1=CC(C)(CC)Nc2cc(C)ccc21 (stereo unspecified),100
Cc1ccc(CC(C(=O)O)C(C)C(=O)Nc2ccc(F)cc2)cc1 (stereo unspecified),101
CCN1CCN(C(=O)c2cc(-c3ccccc3)nc3ccccc23)CC1,124
N#CC(=C1C(=O)c2ccccc2C1=O)c1nc2ccccc2[nH]1,104
OC1CCN(c2ncc(C(F)(F)F)cc2Cl)CC1,105
CCn1cc(SCC(=O)NC2CCCCC2)c2ccccc21,100
CC(O)CNc1ncnc2nc[nH]c12 (stereo unspecified),101
O=C(Nc1cc2ccc(O)cc2oc1=O)c1cccc(C(F)(F)F)c1,89
O=c1c2c(-c3ccccc3)csc2ncn1-n1cccc1,107
c1ccc(-c2nnc(-c3cccc4ccccc34)o2)cc1,76
CN1C(=O)/C(=C/c2ccc(C(=O)NCc3ccccc3)cc2)Oc2ccccc21,93
N#C/C(=C\c1ccc(C(F)(F)F)cc1)c1cccc(C(F)(F)F)c1,103
COC(=O)c1nnn(CC(=O)Nc2ccc(OC)cc2)c1N,103
NC(=O)c1sc2nc3c(cc2c1N)C(=O)CCC3,100
Nc1ccccc1N1C(=O)c2ccccc2C1=O,101
CCOC(=O)c1cc(-c2ccc(Cl)cc2)oc1C(F)(F)F,98
Cc1nc(-c2coc3cc(O)ccc3c2=O)cs1,104
CCCC1c2ccc(C)n2CCN1C(=O)NCc1ccccc1 (stereo unspecified),103
O=c1cnnc(Nc2ccccc2)[nH]1,109
Cc1nn(C)c2sc(C(=O)NC3CCCCNC3=O)cc12 (stereo unspecified),99
CNCC(O)Cn1c(C(F)(F)F)nc2ccccc21 (stereo unspecified),88
Cc1cc2c3c(c1)c(-c1ccccc1)c(C)n3CCC2,100
COc1ccc(Nc2cc(C(=O)NCCc3ccccc3)c3ccccc3n2)cc1,99
C/C(=N\N)c1ccc2ccccc2c1,83*
O=c1cc(-c2ccccc2)nc2cc(-c3ccccc3)[nH]n12,115
O=c1cc(-c2ccco2)oc2c1ccc1ccccc12,99

# Next section.
SMILES,Vaccinia pol inh
O=C(Nc1cccc2ccccc12)C1CCCCN1S(=O)(=O)c1ccccc1 (stereo unspecified),90
COc1ccccc1C(CC(=O)O)c1ccco1 (stereo unspecified),98
CC(O)c1ccc(-n2cccc2)cc1 (stereo unspecified),86
CCCN(CCC)S(=O)(=O)c1cc2[nH]c(=O)c(=O)[nH]c2cc1C,103
C=CCn1c(-c2cccs2)nc2ccccc21,99
N#Cc1c(N)nc(-c2ccccc2)nc1C(F)(F)F,103
CC(=O)N1CCN(Cc2cnc(Cl)s2)CC1,106
N#Cc1c2c(c(NCCN3CCCCC3)n3c1nc1ccccc13)CCC2,100
Cc1cc(C)c2ccc(/C=N/O)nc2c1O,100
NNC(=O)c1cc(-c2ccccc2)nn1-c1ccccc1,100
CCN(C(=O)CSC1CCCC1)C1CCCCC1,87
CC(C)S(=O)(=O)C1=NSC2=NC(=O)/C(=C\c3ccco3)C(=N)N21,92
O=C1N/C(=N\O)S/C1=C/c1ccc(O)cc1,84*
O=C(c1sccc1Cl)N1CCN(Cc2ccc3c(c2)OCO3)CC1,108
CC(C)c1c(C#N)c(N)nc(SCC(N)=O)c1C#N,100
CCCCCCCCCCCCCCCC[N+](C)(C)C,101
COc1ccccc1C(=O)Nc1nc2c(s1)CC(C)CC2 (stereo unspecified),106
CCCCc1cc(CCCC)n2nc(-c3ccccc3)cc2n1,100
Cc1ccc(NC(=O)/C=C/c2ccc(Br)o2)cc1,100
CCn1cc(S(=O)(=O)CC(=O)Nc2ccc3c(c2)OCCO3)c2ccccc21,104
O=c1[nH]c(CCl)nc2sc3c(c12)CCCC3,84
COc1ccc(/C=C2/Sc3ccc(C(=O)N(C)C4CCCCC4)cc3NC2=O)cc1,99
COc1cc(C(=O)NCCC(=O)N2CCN(C)CC2)cc(OC)c1OC,98
O=C(CSc1nnc(-c2ccccc2)o1)N1CCCCC1,100
O=C(O)c1ccc(C(=O)O)c(-c2nc3ccccc3s2)c1,97
O=c1c2cncnc2[nH]n1-c1ccccc1,99
COc1cc2nc(NC(=O)c3ccc(Cl)cc3)[nH]c(=O)c2cc1OC,89
CC(C)NC(=O)CC1Nc2c3ccccc3nc(=S)n2C1=O (stereo unspecified),100
CCOC(=O)c1cnc(SCC(=O)NCc2ccco2)nc1N,106
Cc1ccc(OCC(=O)OCC(N)=O)cc1C,97
c1ccc2[nH]c(C34CC5CC(CC(C5)C3)C4)cc2c1,100
c1ccc2c(c1)nc(NC1CCCC1)c1nncn12,99
CN(C)S(=O)(=O)c1ccc2nc(NC(=O)c3cccs3)sc2c1,100
CC1CSC(Nc2ccccc2C(C)C)=N1 (stereo unspecified),105
CC(=O)Nc1scc(C)[n+]1C,101
O=S(=O)(Nc1nc2ccccc2nc1NCCc1ccccc1)c1ccc(Cl)cc1,100
CCCCn1c(SCC(=O)Nc2ccc(OC)cc2)nc2ccc(N3CCOCC3)cc2c1=O,101
CSc1c(CC(=O)Nc2ccc(C)cc2)[nH]c2ccccc12,99
CC(C)Nc1cc(C(F)(F)F)nc(-c2ccccn2)n1,100
Cc1nnc(Sc2cc(C(=O)NC3CC3)c3ccccc3n2)s1,105
Cc1ccc2nc(NCc3ccccc3)[nH]c2c1,99
CC1CC(C)(C)NC(=S)N1CCCC(=O)Nc1nc2ccccc2s1 (stereo unspecified),105
N#CC1=C(N2CCOCC2)c2cc3c(n2C1=N)CCCC3,101
CCCCC(C(=O)Nc1ccccc1)N1C(=O)c2ccccc2C1=O (stereo unspecified),100
Cc1nc(C23CC4CC(CC(C4)C2)C3)[nH]c(=O)c1Cl,91
Cc1cc2ncn(C(=O)c3c(-c4ccccc4Cl)noc3C)c2cc1C,100
CN1CCc2nc3sc(C(=O)C(C)(C)C)c(N)c3cc2C1,100
CCOc1ccccc1NC(=O)/C=C/C(N)=O,99
Cn1cnc2c(cnn2-c2ccccc2)c1=O,104
CCCCCCCCCCCCC/C=C/[C@@H](O)[C@H](CO)NCCCCCCCC,101
CNC(=O)CN(c1cccc(C)c1C)S(=O)(=O)c1ccccc1,100
COc1nc2c(C)cccc2cc1-c1noc(-c2ccc(C)cc2)n1,105
Clc1ccc(N=Cc2c[nH]c3ccccc23)cc1Cl,101
